Rango-impB inh – inhibitors of Rango-importin beta complex formation. Rango CFP/YFP FRET sensor + importin beta, 45 min. Potency, µM (highest dose often 92.2 µM), for the others: top-dose inhibition of complex formation. AID 540263. Q14974. actives 0.031% (n = 340,000); active = rising FRET ratio curve, often small or poorly fitted; inconclusive = mostly compound fluorescence or quenching in the first reads; inactive = flat curves in all reads;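 note: potency is the fitted concentration of half-maximal effect; 0% = DMSO wells and 100% = buffer wells lacking importin beta; nearly all actives have a fitted effect of over 15% in size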
Target sequence (Q14974 whole entry, looked up): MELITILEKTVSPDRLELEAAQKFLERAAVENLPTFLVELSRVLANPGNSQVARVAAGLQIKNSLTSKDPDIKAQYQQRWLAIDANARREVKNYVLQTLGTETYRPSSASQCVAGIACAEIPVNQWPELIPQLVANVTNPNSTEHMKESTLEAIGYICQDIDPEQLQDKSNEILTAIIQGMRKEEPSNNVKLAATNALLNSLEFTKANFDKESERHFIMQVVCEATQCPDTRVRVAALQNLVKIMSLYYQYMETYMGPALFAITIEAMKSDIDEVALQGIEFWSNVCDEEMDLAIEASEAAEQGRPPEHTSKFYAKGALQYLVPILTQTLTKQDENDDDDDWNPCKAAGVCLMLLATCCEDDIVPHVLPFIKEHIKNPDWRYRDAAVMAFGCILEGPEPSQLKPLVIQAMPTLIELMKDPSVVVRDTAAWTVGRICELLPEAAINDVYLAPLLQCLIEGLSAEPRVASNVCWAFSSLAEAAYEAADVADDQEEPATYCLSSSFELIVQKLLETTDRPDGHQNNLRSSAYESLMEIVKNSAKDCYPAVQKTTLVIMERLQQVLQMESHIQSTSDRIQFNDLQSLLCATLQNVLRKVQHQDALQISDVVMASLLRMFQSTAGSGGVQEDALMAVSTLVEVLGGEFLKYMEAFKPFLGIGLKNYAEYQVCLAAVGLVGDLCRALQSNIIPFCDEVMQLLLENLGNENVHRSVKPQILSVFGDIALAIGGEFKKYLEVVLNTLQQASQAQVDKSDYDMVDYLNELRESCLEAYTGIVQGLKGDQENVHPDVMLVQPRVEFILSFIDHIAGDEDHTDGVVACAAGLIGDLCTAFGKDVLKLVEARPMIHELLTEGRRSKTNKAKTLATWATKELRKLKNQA
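Inhibition scored from the CFP 486 nm/YFP 530 nm FRET ratio 45 min after adding 0.125 microM importin beta to 50 nM Rango biosensor preincubated 5 min with compound (room temperature, PBS with DTT, Tween-20, BSA). No-importin wells as positive control.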
miR-21 FLuc – miR-21 reporter, rising signal | HeLa miR-21 FLuc reporter, luciferase, 48 h | Potency, µM (top dose mostly 38.3 µM), for the others: at the top dose reporter change, positive = more light | 340,000 tested, under 10 active; active = well fitted rising curve with a large enough effect; inconclusive = small, poorly fitted or top-dose-only effect; inactive = no such curve, though single readings can be large or run the other way;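 note: % of control where 0% means no effect; miR-21 action dims this reporter so a rising signal means less miR-21 action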
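HeLa cells endogenously expressing miR-21, stably carrying CMV-driven firefly luciferase with a downstream miR-21 binding site, 2000 cells/well. Titrations up to approximately 40 uM, 48 hours; luciferase luminescence read.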
Rango dissoc inh – inhibitors of RanGTP-induced Rango-importin beta complex dissociation | O95149+P62826 | Potency, µM (top dose mostly 46.1 µM), without a hit: at the top dose activity change, negative = inhibition | actives 0.071% (n = 340,000) | AID 540253 | Biochemical FRET Rango-importin beta, RanGTP-induced dissociation; active means falling FRET ratio curve, often poorly fitted, with flat reads before Ran was added; inconclusive means other falling curves, or compound fluorescence or quenching; inactive means flat or rising ratio curve;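 note: potency is the fitted concentration of half-maximal effect; % of control where 0% means no effect; nearly all actives have a fitted effect of over 45% in size; -100% = wells without RanGTP and RCC1; the record marks most hits as doubtful in a second field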
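Two FRET readings bracket the reaction: one 5 min after compound meets Rango–importin beta, another 45 min after RanGTP-RCC1 (0.6 uM Ran, 0.2 uM RCC1, 2 mM GTP) is added. Only the second defines inhibition.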
GLA inh pH 4.5 – blocks human alpha-galactosidase A at pH 4.5 | activity change, negative = inhibition, % at 105 µM | purified enzyme, 4-MU-alpha-Gal fluorescence, pH 4.5 | 230,000 tested, under 10 active; inconclusive = small, poorly fitted or top-dose-only inhibition, or a rising curve; inactive = flat fitted curve, though single readings scatter; no compound was filed as active;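 note: 0% = full activity with enzyme and -100% = basal without enzyme; dose as in the result columns while the protocol names 77 µM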
The depositor's hits bear a star; ? = inconclusive; · = not tested or not shown; & = joins results of further samples. This is a subset; rates above refer to the full screens.

SMILES | Rango-impB inh | miR-21 FLuc | Rango dissoc inh | GLA inh pH 4.5
COc1ccc(CCNCC(O)COc2cccc(Br)c2)cc1 (stereo unspecified) | 0.0% | 18.6% | 7.3% | -0.9
O=C(CN1CCc2ccccc2C1)Nc1ccc(F)cc1F | -2.2% | -8.5% | -17.3% | -27.2
Cc1ccc2[nH]c(=O)c(CN(Cc3ccccc3Cl)C(=O)N3CCOCC3)cc2c1 | 1.8% | -4.7% | -0.7% | -3.8
COc1ccccc1CNC(=O)CCCn1nc(C)c2c(C)n(-c3ccccc3)nc2c1=O | -2.8% | 1.9% | -13.0% | ·
CCn1c(-c2ccccc2)ccc(C#N)c1=O | -0.4% | -9.9% | 12.9% | -0.7
C=CCn1cc(C(=O)OC)c(=O)c2cc(S(=O)(=O)N(CC)CC)ccc21 | -2.3% | -0.3% | -6.1% | -5.1
CCOC(=O)C(=Cc1ccc(F)cc1)C(=O)OCC | · | ? | · | -8.6
O=C(Nc1nnc(SCc2cccnc2)s1)C1CC(=O)N(c2ccccc2)C1 (stereo unspecified) | -2.2% | -3.7% | 1.4% | ·
CCCCCC(=O)Nc1ccc(N2CCN(C(=O)CCC)CC2)cc1 | -5.1% | -6.8% | -1.3% | 8.9
Cc1nc(-c2ccccn2)sc1C(=O)Nc1ccc(F)cc1F | -3.1% | -57.5% | -1.0% | 1.8
Cc1ccc(C)c(OCc2cc(C(=O)NC3CCOC(C)(C)C3)no2)c1 (stereo unspecified) | 0.3% | -28.5% | -1.2% | ·
Cc1nn(C(C)C(=O)Nc2ccccc2Cl)c(=O)c2nn(-c3ccccc3)c(C)c12 (stereo unspecified) | 0.6% | 9.6% | -11.9% | ·
CCOC(=O)c1[nH]c(COC(=O)c2ccccc2NC(=O)c2ccco2)c(C(=O)OCC)c1C | 2.8% | -7.1% | -15.0% | -8.0
COc1ccc2c(c1)CCc1cn3nc(C)cc3nc1-2 | ? | -5.3% | ? | 4.5
O=C(C1CCCN(S(=O)(=O)c2cccc3nonc23)C1)N1CCN(c2ccccc2)CC1 (stereo unspecified) | 1.4% | 9.6% | 6.1% | -1.2
O=C(COC(=O)CCC(=O)c1ccc(F)cc1)Nc1ccc2[nH]c(=O)[nH]c2c1 | 2.8% | · | 16.8% | ·
Oc1oc(-c2ccccc2)nc1C=NCc1ccncc1 | 0.6% | -24.7% | -5.7% | -24.4
Cc1ccc(N2CCN(CCCCN3C(=O)C4CCCN4C3=O)CC2)cc1 (stereo unspecified) | 1.2% | 1.3% | 0.7% | -1.3
COCc1cc(=O)[nH]c(=S)[nH]1 | -2.9% | 0.7% | 3.2% | 4.8
O=C1C=C(c2ccc(-c3ccccc3)cc2)C[C@@H](c2ccc(Cl)cc2)C1 | 0.0% | · | -16.3% | ·
O=C(NCc1ccc(N2CCCC2=O)cc1)Nc1ccccc1 | 2.8% | -8.5% | 1.8% | 0.8
COC(=O)C1=C(C(=O)OC)[C@@H]2N(C)c3ccccc3[C@@]23C[C@@H](CO)N(C(=O)NCCBr)C3=N1 | -3.1% | -0.3% | 4.3% | -5.6
O=c1[nH][nH]c2cc(=O)n(-c3ccc(Cl)cc3)nc12 | -0.1% | -0.2% | ? | -25.1
Cc1ccccc1C(=O)Nc1ccccc1NC(=O)c1ccccc1C | 4.8% | 0.1% | -3.1% | ·
CNc1ccccc(-c2ccc3ccccc3n2)c1=O | ? | -45.8% | ? | 2.3
O=C(CN1CCN(c2ccc(F)cc2)CC1)NCc1ccc(F)cc1 | 1.1% | -3.5% | 19.1% | ·
CC(OC(=O)CCc1cc(C(C)(C)C)c(O)c(C(C)(C)C)c1)C(=O)NC1CC1 (stereo unspecified) | 8.6% | · | ? | ·
CN(CC(=O)NCc1ccc2c(c1)OCO2)S(=O)(=O)c1ccc(Br)s1 | -1.1% | -3.9% | -8.7% | 1.3
O=C(Nc1ccc(CN2CCCCC2)cc1)Nc1ccc(Br)cc1Cl | 0.8% | -7.7% | 7.2% | -6.3
CC1=CC(C)C2C(=O)N(c3ccccc3)NC(=O)C2C1 (stereo unspecified) | 5.4% | -0.8% | -10.5% | 3.7
COCCNC(=S)N/N=C(\C)c1cccc(OC)c1 | 0.1% | -3.0% | -2.9% | 8.7
O=C(c1ccc(N2CCOCC2)nc1)N1CCCCC1 | -0.4% | -14.4% | -5.4% | -2.8
CC(C)(C)S(=O)N1Cc2cc(CO)ccc2[C@@H]1CCO (stereo partly specified) | 0.7% | · | -2.3% | ·
Cc1ccc(-c2ccc(C(=O)Nc3ccccc3)o2)c2ccccc12 | 5.5% | -37.3% | 10.8% | 7.3
COCCCNc1nc2ccccc2nc1NS(=O)(=O)c1cc(Cl)ccc1Cl | -0.4% | 8.2% | 3.0% | ·
CCn1ncc(C2=NOC(C(=O)NCCc3ccccc3)C2)c1C (stereo unspecified) | 4.1% | -8.1% | 0.4% | 2.5
O=C(Nc1ccc2oc(-c3ccncc3)nc2c1)c1ccco1 | -1.4% | -34.8% | 1.3% | ·
O=Nc1ccc(NOC(=O)c2ccccc2Br)cc1 | 0.8% | 0.1% | 8.2% | -14.4
CC(C)Cc1nnc(NC(=O)C23CC4CC(CC(C4)C2)C3)s1 | -0.5% | -8.4% | 17.9% | ·
c1ccc(-n2ncc3c(N4CCN(c5ccccn5)CC4)nc(N4CCCCC4)nc32)cc1 | · | -4.8% | · | 2.5
Cc1cccc(OCC(=O)N/N=C/c2cccn2C)c1 | -1.2% | -5.6% | -1.0% | 4.3
O=C(O)CCCNC1=NCCC1 | -1.0% | -6.6% | -12.8% | 3.9
Cc1[nH]c(=S)c(C#N)c(C)c1CC(=O)c1ccc(Br)cc1 | 5.1% | 6.1% | -14.6% | ·
C=CCN(CC=C)C(=O)COn1nnc2ccc(S(=O)(=O)N3CCOCC3)cc21 | -1.3% | · | 20.2% | ·
NC(=O)CSc1nnc(Cn2cnc3ccccc32)o1 | 1.4% | 2.6% | -14.1% | -5.1
COc1cccc(CN2CCN(Cc3ccccc3C(F)(F)F)CC2)c1 | 3.8% | -1.0% | 13.4% | ·
Cc1ccc(NC(=S)Nc2ccc(OC(F)F)c(Cl)c2)cc1F | -1.1% | 5.6% | 4.0% | -19.7
Cc1ccc(/C=N/NC(=O)c2ccncc2)s1 | 0.4% | -17.8% | -5.8% | -3.0
CC1CCCC(C)N1C(=O)CN1C(=O)C(C)(C)Oc2ccc(C(=O)NC3CCCC3)cc21 (stereo unspecified) | 0.3% | -1.1% | -0.6% | 10.2
CC(C)(C)/C=N/NC(=O)CNC(=O)c1ccc2c(c1)OCCO2 | -3.9% | 1.0% | 29.0% | -4.0
O=C(Nc1ccccc1)OCc1cc(-c2ccc(Cl)cc2)on1 | -4.8% | -12.5% | 0.8% | 4.1
O=C(Nc1cccc(-c2ccc(N3CCOCC3)nn2)c1)c1ccc(Cl)cc1 | ? | · | -4.8% | ·
CC(=O)N1CCN2C(=O)C1CCCC(=O)c1cc(C(C)C)ccc12 (stereo unspecified) | 0.8% | -7.7% | 15.4% | -6.4
Cc1ccc(S(=O)(=O)Nc2ccc3c(c2)C(=O)N([C@H](C)CO)C[C@H](C)[C@@H](CN(C)C(=O)Nc2ccc(C(F)(F)F)cc2)O3)cc1 | ? | · | · | ·
CCCCN(C(=O)CCCc1nc2ccccc2c(=O)[nH]1)c1c(N)n(CC(C)C)c(=O)[nH]c1=O | -0.8% | · | -4.2% | ·
CN(C)C(=O)c1ccc(NC(=O)CSc2nnc(-c3ccc4c(c3)OCO4)o2)cc1 | 4.3% | · | 9.7% | ·
Cc1ccc(S(=O)(=O)Nc2cccc(C(=O)NCc3ccccn3)c2)cc1F | -1.7% | · | 24.1% | ·
C=CCSc1nnc(N2C(=O)C(O)=C(C(=O)c3ccco3)C2c2ccccc2F)s1 (stereo unspecified) | ? | -5.0% | ? | ·
CC(C)(C)NC(=O)NC(=O)COC(=O)Cc1coc2ccc3ccccc3c12 | 1.9% | -5.6% | -4.6% | -9.5
Cc1ccc(C)c(Oc2cc(NC(=O)CCCn3nc(C)c([N+](=O)[O-])c3C)cc([N+](=O)[O-])c2)c1 | -0.6% | -9.9% | 4.1% | -1.2
Next part:
SMILES | Rango-impB inh | miR-21 FLuc | Rango dissoc inh | GLA inh pH 4.5
O=C(NNC(=O)c1ccc[nH]1)c1cc(Cl)cc(Cl)c1 | -2.9% | 0.1% | 11.7% | ·
CC(C)OP(=O)(OC(C)C)C(NC(=O)c1ccccc1Br)C(N)=O (stereo unspecified) | -3.1% | -1.4% | 16.1% | -4.8
NS(=O)(=O)c1ccc(CCN2C(=O)/C(=C\c3ccc(Cl)cc3)SC2=S)cc1 | 6.5% | -1.1% | -0.1% | 10.1
CCOc1cc(NC(=O)CCl)c(OCC)cc1NC(=O)CCl | -0.3% | ? | -4.1% | -7.8
Cc1ccccc1C(C(=O)NC1CCCC1)N(C(=O)CNC(=O)c1ccco1)c1cccnc1 (stereo unspecified) | · | -5.1% | · | -14.0
CC1=CN2CC(O)CN=C2C=C1 (stereo unspecified) | -0.4% | 0.4% | 7.9% | -11.9
O=C(c1ccc2ccccc2n1)N1CCN(c2ccccc2Cl)CC1 | 9.5% | -67.4% | 4.5% | 8.6
COc1ccc(N(CC(=O)Nc2cc(OC)c(OC)cc2C(=O)O)S(=O)(=O)c2c(C)noc2C)cc1 | 5.8% | 1.0% | -3.0% | ·
O=C(CN1C(=O)c2ccccc2C1=O)NC1CCC(O)CC1 (stereo unspecified) | 2.3% | · | 27.0% | ·
CC(=O)Nc1ccc(NC(=O)C(C)OC(=O)CNC(=O)c2cccs2)cc1 (stereo unspecified) | 2.4% | · | -25.0% | ·
N#CC1=C(N)Oc2n[nH]c(-c3ccccc3)c2C1c1ccncc1 (stereo unspecified) | 5.7% | 2.2% | -1.7% | 3.9
S=C(NCCc1ccccc1)NCCc1ccccc1 | -3.6% | -74.1% | 2.8% | -25.9
O=C(CCc1ccccc1)Nc1c(F)cccc1F | 5.2% | · | -9.1% | ·
CCc1cc2c(-c3ccccc3)cc(=O)oc2cc1OC(C)C(=O)NCC1CCC(C(=O)O)CC1 (stereo unspecified) | -2.4% | -0.1% | -10.6% | ·
Cc1cccc(NC(=O)Cn2nnc(C(=O)Nc3ccc(F)c(Cl)c3)c2N)c1 | -0.1% | -0.3%&-5.6% | -6.0% | ·

Molecules listed so far that have a CF3 group (2):
SMILES | Rango-impB inh | miR-21 FLuc | Rango dissoc inh | GLA inh pH 4.5
COc1cccc(CN2CCN(Cc3ccccc3C(F)(F)F)CC2)c1 | 3.8% | -1.0% | 13.4% | ·
Cc1ccc(S(=O)(=O)Nc2ccc3c(c2)C(=O)N([C@H](C)CO)C[C@H](C)[C@@H](CN(C)C(=O)Nc2ccc(C(F)(F)F)cc2)O3)cc1 | ? | · | · | ·

Other results:
SMILES | Rango-impB inh | miR-21 FLuc | Rango dissoc inh | GLA inh pH 4.5
CCS(=O)(=O)c1nn2c(N)c(/C=C3/C=CC(=O)C(OC)=C3)c(=O)nc2s1 | ? | -8.7% | ? | -3.7
COC(=O)CNC(=O)CSc1nnc(-c2ccc(OC)cc2)n1CC(C)C | -2.2% | -5.7% | -10.7% | 3.9
Cc1ccc(C2(C)NC(=O)N(CC(=O)Nc3cc(S(=O)(=O)N4CCCCC4)ccc3OC(C)C)C2=O)cc1 (stereo unspecified) | -2.2% | · | -12.0% | ·
COc1cccc(Nc2nnc(SCC(=O)N(CC(C)C)CC(C)C)s2)c1 | 5.9% | 14.0% | 7.7% | -0.3
C=CCN1C(=O)S/C(=C/c2ccc(Sc3nc4ccccc4[nH]3)o2)C1=O | ? | 6.4% | 16.5% | -12.1
CN(CC(=O)Nc1cccc(F)c1)C(=O)c1ccccc1Sc1ccccc1C#N | 0.0% | · | -4.5% | ·
C[n+]1ccccc1/C=C1\Sc2ccccc2N1CCO | -3.0% | 11.2% | -28.5% | ·
COc1ccc(S(=O)(=O)Nc2ccc(S(=O)(=O)Nc3nccs3)cc2)cc1 | -0.1% | 5.1% | -9.5% | ·
Cc1cc(Br)ccc1NC(=O)CCS(=O)(=O)c1cccc2nonc12 | -0.8% | -0.7%&1.7% | 25.4% | ·
CC(C)=CC(=O)Nc1nnc(-c2cccnc2)s1 | -1.7% | -6.6% | -0.5% | 0.7
O=c1c2c3c(sc2nc2n1CCC2)CCCCC3 | 0.1% | -21.5% | 16.6% | -1.3
Oc1ccc2ccc3cccc[n+]3c2c1 | ? | · | ? | ·

Screening results: PubChem, National Center for Advancing Translational Sciences (NCATS)
